High-throughput results: PubChem BioAssay, National Center for Advancing Translational Sciences (NCATS)
N370S GC: inhibits or activates N370S mutant glucocerebrosidase; 330,000 tested, 0.092% active; Potency, µM (doses to about 59.4 µM), inactives show at the top dose activity change, negative = inhibition, actives largely listed as inhibitors; P04062; N370S GC spleen homogenate, 4MU-glucoside fluorescence; active = well fitted inhibition curve with a large enough effect; inconclusive = small, poorly fitted or top-dose-only effect, or effect the other way, or another doubt; inactive = no such curve, though single readings can be large or run the other way;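 also: 0% = full enzyme activity and -100% = no enzyme basal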
Numbers without * were called inactive; ? = inconclusive. Potency is read from the fitted curve at half-maximal effect. Some of the compounds tested; most or all hits stand in other tables.

1. CC1CCCN(C(=O)CNC(=O)c2ccco2)C1 (stereo not given)
- N370S GC = -5%
2. CC(C)(C)c1ccc(NC(=O)c2ccccc2)c([N+](=O)[O-])c1
- N370S GC = 20%
3. CCN(Cc1ccccc1)C(=O)COC(=O)c1cc(=O)[nH]c2ccccc12
- N370S GC = 10%
4. COc1ccc(NC(=O)CSc2nncn2C)cc1OC
- N370S GC = 6%
5. O=C(Oc1ccc2c(c1)OCO2)c1ccncc1
- N370S GC = 2%
6. CC(C)N=C(N)N=C(N)Nc1ccc(Cl)cc1
- N370S GC = -4%
7. Cc1ccc(OCCSCc2nc3ccccc3[nH]2)cc1
- N370S GC = -11%
8. CC1(C)OC(=O)C(=NNc2ccc(C(=O)O)cc2)C(=O)O1
- N370S GC = ?
9. Cc1ccc(CC(CC(=O)O)C(=O)NC2CCCCC2)cc1 (stereo not given)
- N370S GC = -1%
10. O=C(Nc1ccc(Cl)c(Cl)c1)Nn1cnnc1
- N370S GC = -15%

11. CCOc1ccc2nc(SCCNS(=O)(=O)c3ccccc3)sc2c1
- N370S GC = 4%
12. CCN1CCN(CC(=O)N2N=C(c3cccs3)CC2c2ccc(OC)cc2)C(=O)C1=O (stereo not given)
- N370S GC = 8%
13. COC(=O)C(C)Sc1ccc2nnc(CCNS(=O)(=O)c3ccc(C)cc3)n2n1 (stereo not given)
- N370S GC = -5%
14. COc1ccc(CCNC(=O)c2nnn(-c3ccccc3OC)c2N)cc1OC
- N370S GC = -9%
15. CN1CCN2c3ccccc3Cc3ccccc3[C@@H]2C1
- N370S GC = -8%
16. COc1cc(NC(=O)Cc2nn(C)c(=O)c3ccccc23)cc(OC)c1
- N370S GC = 1%

Looked up one by one from above, two records:
13. COC(=O)C(C)Sc1ccc2nnc(CCNS(=O)(=O)c3ccc(C)cc3)n2n1 (stereo not given)
- N370S GC = -5%
12. CCN1CCN(CC(=O)N2N=C(c3cccs3)CC2c2ccc(OC)cc2)C(=O)C1=O (stereo not given)
- N370S GC = 8%

3 entries already listed, ordered by formula weight, smallest number first.
15. CN1CCN2c3ccccc3Cc3ccccc3[C@@H]2C1
- N370S GC = -8%
16. COc1cc(NC(=O)Cc2nn(C)c(=O)c3ccccc23)cc(OC)c1
- N370S GC = 1%
11. CCOc1ccc2nc(SCCNS(=O)(=O)c3ccccc3)sc2c1
- N370S GC = 4%
